miR-21 FLuc: raises the signal of a miR-21 reporter. 340,000 tested, under 10 active. Potency, µM (doses to about 38.3 µM), without a hit: top-dose reporter change, positive = more light. HeLa miR-21 FLuc reporter, luciferase, 48 h. AID 2288; active = well fitted rising curve with a large enough effect; inconclusive = small, poorly fitted or top-dose-only effect; inactive = no such curve, though single readings can be large or run the other way;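 also: % of control where 0% means no effect; miR-21 action dims this reporter so a rising signal means less miR-21 action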
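HeLa miR-21-FLuc reporter line, endogenous miR-21; 2000 cells/well in DMEM/10% FBS; compound titration up to ~40uM final, 48 h, 37 degree Celsius; luciferase detection reagent, 15 min lysis, CCD luminescence.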
Rango complex inh: prevents formation of the Rango-importin beta complex; AID 540263; 340,000 tested, 0.031% active; Rango CFP/YFP FRET sensor + importin beta, 45 min; Potency, µM (series often up to 92.2 µM), inactives show at the highest dose inhibition of complex formation; Q14974; active = rising FRET ratio curve, often small or poorly fitted; inconclusive = mostly compound fluorescence or quenching in the first reads; inactive = flat curves in all reads;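 also: potency is read from the fitted curve at half-maximal effect; 0% = DMSO wells and 100% = buffer wells lacking importin beta; nearly all actives have a fitted effect of over 15% in size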
Target sequence (Q14974 whole entry, looked up): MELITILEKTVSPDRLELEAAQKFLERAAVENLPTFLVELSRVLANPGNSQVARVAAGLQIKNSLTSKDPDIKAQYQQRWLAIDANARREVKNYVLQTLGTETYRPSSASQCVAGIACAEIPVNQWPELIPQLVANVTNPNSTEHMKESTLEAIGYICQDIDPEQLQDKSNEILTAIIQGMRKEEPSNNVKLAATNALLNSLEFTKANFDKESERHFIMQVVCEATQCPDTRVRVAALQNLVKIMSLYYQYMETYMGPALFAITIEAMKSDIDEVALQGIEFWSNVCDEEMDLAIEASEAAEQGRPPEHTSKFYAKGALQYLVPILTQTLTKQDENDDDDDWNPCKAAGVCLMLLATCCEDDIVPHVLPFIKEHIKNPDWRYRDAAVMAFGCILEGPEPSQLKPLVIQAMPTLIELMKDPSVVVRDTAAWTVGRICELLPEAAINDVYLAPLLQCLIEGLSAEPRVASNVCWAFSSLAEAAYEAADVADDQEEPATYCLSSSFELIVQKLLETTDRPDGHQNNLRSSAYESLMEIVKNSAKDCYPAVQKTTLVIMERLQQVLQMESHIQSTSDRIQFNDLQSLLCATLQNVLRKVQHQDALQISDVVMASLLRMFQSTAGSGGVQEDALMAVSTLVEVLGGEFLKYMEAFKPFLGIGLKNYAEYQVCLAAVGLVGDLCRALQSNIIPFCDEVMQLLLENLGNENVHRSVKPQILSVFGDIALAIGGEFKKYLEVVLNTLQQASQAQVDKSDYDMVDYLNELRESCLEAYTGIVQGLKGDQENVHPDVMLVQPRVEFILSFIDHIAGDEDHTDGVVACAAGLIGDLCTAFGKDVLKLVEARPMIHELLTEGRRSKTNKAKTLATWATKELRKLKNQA
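FRET biosensor Rango (snurportin 1 IBB between N-terminal EYFP and C-terminal Cerulean), 50 nM in PBS/1 mM DTT/0.02% Tween-20/0.1% BSA, preincubated 5 min RT with compound; 0.125 microM importin beta added, 45 min RT, CFP/YFP FRET ratio read.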
Rango release inh: inhibitors of RanGTP-induced Rango-importin beta complex dissociation | 340,000 tested, 0.071% active | Potency, µM (highest dose often 46.1 µM), for the others: top-dose activity change, negative = inhibition | O95149+P62826 | Biochemical FRET Rango-importin beta, RanGTP-induced dissociation | AID 540253; active means falling FRET ratio curve, often poorly fitted, with flat reads before Ran was added; inconclusive means other falling curves, or compound fluorescence or quenching; inactive means flat or rising ratio curve;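 also: potency is read from the fitted curve at half-maximal effect; % of control where 0% means no effect; nearly all actives have a fitted effect of over 45% in size; -100% = wells without RanGTP and RCC1; the record marks most hits as doubtful in a second field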
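FRET read at 45 min, room temperature: inhibitors block the CFP/YFP signal rise when RanGTP (0.6 uM Ran, 2 mM GTP, 0.2 uM RCC1) frees Rango (0.1 uM) from importin beta (0.25 uM). Pre-read after 5 min compound exposure flags interference.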
GLA inh pH 4.5: alpha-galactosidase A (human) inhibition, pH 4.5 | activity change, negative = inhibition, % at 105 µM | purified enzyme, 4-MU-alpha-Gal fluorescence, pH 4.5 | 230,000 tested, under 10 active | P06280 | AID 1467; inconclusive = small, poorly fitted or top-dose-only inhibition, or a rising curve; inactive = flat fitted curve, though single readings scatter; no compound was filed as active;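 also: 0% = full activity with enzyme and -100% = basal without enzyme; dose as in the result columns while the protocol names 77 µM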
* marks the source's active call; other numbers are inactive results. A portion of the library; the hit share may differ from the screen's.

Preview (eight entries):
`CCN(C(=O)C1CSC2(C)CCC(=O)N12)c1nc2c(C)cccc2s1` (stereo unspecified) gave Rango complex inh 9.7% and Rango release inh 0%.
CCC(C)n1cnc2c(=O)oc3ccccc3c21 (stereo unspecified) was read as miR-21 FLuc -22%, Rango complex inh -4.2%, Rango release inh 10% and GLA inh pH 4.5 1.
For Cc1ccc(CCNS(=O)(=O)c2cnc[nH]2)cc1 the results were miR-21 FLuc 2%, Rango complex inh 2.7%, Rango release inh 5% and GLA inh pH 4.5 -2.
`CCN(CC)CCCC(C)NC(=O)c1cc(=O)c2ccccc2o1` (stereo unspecified) gave miR-21 FLuc 4%, Rango complex inh -2.0%, Rango release inh 0% and GLA inh pH 4.5 -9.
Screening O=C(C[C@H]1C/C=C/CC[C@@H](Cc2ccc(F)cc2)C(=O)O[C@@H](c2ccccc2)CNC1=O)NCCO returned Rango complex inh 0.5% and Rango release inh 4%.
Screening COc1ccc(C(CNC(=O)c2cccc(S(=O)(=O)Nc3ccc(F)cc3)c2)N2CCOCC2)cc1 (stereo unspecified) returned Rango complex inh -0.5% and Rango release inh 3%.
`COc1ccc(NC(=O)CCCCn2c(=O)[nH]c3ccccc3c2=O)cc1` gave miR-21 FLuc -5%, Rango complex inh -2.2%, Rango release inh 10% and GLA inh pH 4.5 -6.
`N#Cc1cn(CC(=O)O)c2ccccc12` gave miR-21 FLuc -3%, Rango complex inh 0.0%, Rango release inh -8% and GLA inh pH 4.5 -11.

Main list, previewed entries included:
`CCN(C(=O)C1CSC2(C)CCC(=O)N12)c1nc2c(C)cccc2s1` (stereo unspecified) gave Rango complex inh 9.7% and Rango release inh 0%.
CCC(C)n1cnc2c(=O)oc3ccccc3c21 (stereo unspecified) was read as miR-21 FLuc -22%, Rango complex inh -4.2%, Rango release inh 10% and GLA inh pH 4.5 1.
For Cc1ccc(CCNS(=O)(=O)c2cnc[nH]2)cc1 the results were miR-21 FLuc 2%, Rango complex inh 2.7%, Rango release inh 5% and GLA inh pH 4.5 -2.
`CCN(CC)CCCC(C)NC(=O)c1cc(=O)c2ccccc2o1` (stereo unspecified) gave miR-21 FLuc 4%, Rango complex inh -2.0%, Rango release inh 0% and GLA inh pH 4.5 -9.
Screening O=C(C[C@H]1C/C=C/CC[C@@H](Cc2ccc(F)cc2)C(=O)O[C@@H](c2ccccc2)CNC1=O)NCCO returned Rango complex inh 0.5% and Rango release inh 4%.
Screening COc1ccc(C(CNC(=O)c2cccc(S(=O)(=O)Nc3ccc(F)cc3)c2)N2CCOCC2)cc1 (stereo unspecified) returned Rango complex inh -0.5% and Rango release inh 3%.
`COc1ccc(NC(=O)CCCCn2c(=O)[nH]c3ccccc3c2=O)cc1` gave miR-21 FLuc -5%, Rango complex inh -2.2%, Rango release inh 10% and GLA inh pH 4.5 -6.
`N#Cc1cn(CC(=O)O)c2ccccc12` gave miR-21 FLuc -3%, Rango complex inh 0.0%, Rango release inh -8% and GLA inh pH 4.5 -11.
Cc1nc(-c2cccc(NC(=O)Cc3ccccc3)c2)cs1 was read as miR-21 FLuc -17%, Rango complex inh 2.6%, Rango release inh -20% and GLA inh pH 4.5 -3.
For O=C(CCCc1ccccc1)Nc1nccs1 the results were Rango complex inh 1.1% and Rango release inh inconclusive.
`CN(C)S(=O)(=O)c1cccc(NC(=O)CN2C(=O)C3C4C=CC(C4)C3C2=O)c1` (stereo unspecified) gave miR-21 FLuc -3%, Rango complex inh -3.6%, Rango release inh -5% and GLA inh pH 4.5 4.
`CCOC(=O)NC(=O)CSc1ccc2ccccc2n1` gave miR-21 FLuc 1%, Rango complex inh 0.8%, Rango release inh 10% and GLA inh pH 4.5 -1.
`COc1ccc(CCNC(=O)C2CCCN(C(=O)c3ccc(Cl)cc3)C2)cc1` (stereo unspecified) gave miR-21 FLuc -1%, Rango complex inh -1.8% and Rango release inh -11%.
`Cc1ccc(S(=O)(=O)NCCC(=O)N2CCN(S(=O)(=O)c3cccc(F)c3)CC2)cc1C` gave Rango complex inh 4.5% and Rango release inh -5%.
`O=C(O)CCC(=O)N1N=C(c2ccco2)CC1c1ccco1` (stereo unspecified) gave miR-21 FLuc 0%, Rango complex inh 0.0% and Rango release inh -6%.
For CC(C)(C)n1nnnc1C(c1cccc(C(F)(F)F)c1)N1CCOCC1 (stereo unspecified) the results were miR-21 FLuc -2%, Rango complex inh -3.4%, Rango release inh 20% and GLA inh pH 4.5 -3.
For COc1ccc(C)cc1S(=O)(=O)N1CCC(C(=O)N2CCOCC2)CC1 the results were miR-21 FLuc -2%, Rango complex inh -5.4%, Rango release inh -5% and GLA inh pH 4.5 5.
Screening CCc1ccc(NC(=O)NCc2ccccn2)cc1 returned miR-21 FLuc -26%, Rango complex inh -3.2% and Rango release inh 2%.
Cc1cc(CC(C)C)n(-c2nc3ccccc3c(=O)n2OCc2ccccc2)n1 was read as miR-21 FLuc -25%, Rango complex inh 8.7%, Rango release inh 17% and GLA inh pH 4.5 -3.
`COc1ccc(OC)c(C2C(C(C)=O)=C(C)Nc3ncnn32)c1` (stereo unspecified) gave miR-21 FLuc -4%, Rango complex inh 2.7% and Rango release inh inconclusive.
CCCCNC(=O)NS(=O)(=O)c1ccc(NS(=O)(=O)c2ccccc2)cc1 was read as miR-21 FLuc -5%, Rango complex inh -2.0%, Rango release inh 19% and GLA inh pH 4.5 -1.
Screening COc1cc(S(=O)(=O)N2CCOCC2)ccc1NC(=O)CSc1nnc(N)s1 returned miR-21 FLuc -3%, Rango complex inh -5.1%, Rango release inh -8% and GLA inh pH 4.5 -6.
Screening O=C(CCCCCCN1C(=O)c2ccccc2C1=O)NC1CCCCC1 returned miR-21 FLuc -8%, Rango complex inh 1.1%, Rango release inh 0% and GLA inh pH 4.5 2.
`CCOc1ccc(CN2C(=O)c3ccccc3C2=O)cc1C(=O)O` gave miR-21 FLuc 0%, Rango complex inh 1.8% and Rango release inh 1%.
For O=C(CN1CCN(S(=O)(=O)c2ccc(F)cc2)CC1)NCC1(N2CCOCC2)CCCCC1 the results were Rango complex inh -0.6% and Rango release inh -14%.
`O=C(COC(=O)c1cccc(F)c1)NC1CC1` gave miR-21 FLuc -2%, Rango complex inh 4.2%, Rango release inh -13% and GLA inh pH 4.5 4.
`CN(Cc1ccccc1)S(=O)(=O)c1ccc(N2CCOCC2)nc1` gave miR-21 FLuc 1%, Rango complex inh -2.5%, Rango release inh -9% and GLA inh pH 4.5 -8.
CCc1c(O)nc(SCC(=O)Nc2ccccc2C)[nH]c1=O was read as miR-21 FLuc -2%, Rango complex inh 5.8%, Rango release inh -6% and GLA inh pH 4.5 -2.
COc1ccc(C(=O)OCC(=O)N2CCc3ccccc3C2)cc1OC was read as Rango complex inh -1.0% and Rango release inh -3%.
O=c1[nH]c2cc(F)ccc2c2ccc(F)cc12 was read as Rango complex inh 0.1% and Rango release inh 1%.
`CCOc1ccccc1N1CCN(Cc2ccc(Br)s2)CC1` gave miR-21 FLuc -2%, Rango complex inh 0.3%, Rango release inh -2% and GLA inh pH 4.5 3.
Screening CC(C)(C)c1ccc(C(=O)NCCCNC(=O)c2cccnc2)cc1 returned miR-21 FLuc -17%, Rango complex inh -1.7% and Rango release inh 12%.
Screening CC1CCc2nc(NC(=O)c3cc(C(C)(C)C)nn3C)sc2C1 (stereo unspecified) returned miR-21 FLuc -5%, Rango complex inh 3.7%, Rango release inh -4% and GLA inh pH 4.5 2.
For CC1CC(C)CN(CCCNC(=O)Cc2c(C(=O)O)[nH]c3ccccc23)C1 (stereo unspecified) the results were miR-21 FLuc 0%, Rango complex inh inconclusive, Rango release inh inconclusive and GLA inh pH 4.5 1.
`CC(=O)c1cccc(NC(=S)Nc2ccc(F)cc2)c1` gave miR-21 FLuc -9%, Rango complex inh -0.5% and Rango release inh 0%.
C=CC[C@@H](Cc1ccc(F)cc1)C(=O)OC[C@@H]1CCCN1C(=O)[C@H](CC=C)CC(=O)N(CCO)Cc1ccccc1 was read as Rango complex inh -2.5% and Rango release inh 1%.
Cc1ccc(S(=O)(=O)N(C)CC(=O)OCC(=O)NCCc2ccc(S(N)(=O)=O)cc2)cc1 was read as Rango complex inh -1.2% and Rango release inh -10%.
Cc1cc(C)nc(N2CCCC(C(=O)NCCC3=CCCCC3)C2)n1 (stereo unspecified) was read as miR-21 FLuc -1%, Rango complex inh 3.5%, Rango release inh -9% and GLA inh pH 4.5 5.
For O=C(Cn1nnc(-c2ccccc2)n1)Nc1ccc2c(c1)OCO2 the results were miR-21 FLuc -2%, Rango complex inh 5.5%, Rango release inh 6% and GLA inh pH 4.5 4.
Screening Cc1ccccc1CN1CCN(Cc2ccccc2C(F)(F)F)CC1 returned miR-21 FLuc -4%, Rango complex inh 0.8%, Rango release inh 1% and GLA inh pH 4.5 -6.
O=c1[nH]c2cc3c(cc2cc1CN(CCc1ccccc1)Cc1nnnn1C1CCCC1)OCCO3 was read as miR-21 FLuc -10% and GLA inh pH 4.5 8.
For Clc1ccc(/C=C/c2ncc3ccccn23)cc1 the results were miR-21 FLuc -57%, Rango complex inh inconclusive, Rango release inh inconclusive and GLA inh pH 4.5 -1.
Screening CCOC(=O)c1nc(NCc2cccc(OC)c2)c2ccccc2n1 returned miR-21 FLuc 5%, Rango complex inh 6.7%, Rango release inh 26% and GLA inh pH 4.5 11.
Screening Cn1c(SCC(=O)N2CCN(C(=O)c3ccco3)CC2)nnc1-c1ccc(NS(C)(=O)=O)cc1 returned miR-21 FLuc -1%, Rango complex inh 0.5%, Rango release inh 26% and GLA inh pH 4.5 -3.
`N#CC1=C(N)Oc2cc(O)ccc2C1c1ccncc1` (stereo unspecified) gave miR-21 FLuc -8%, Rango complex inh inconclusive, Rango release inh inconclusive and GLA inh pH 4.5 -9.
Screening COc1ccc(NS(=O)(=O)c2ccc(C)c(C(=O)N(C)CCc3ccc(OC)c(OC)c3)c2)cc1 returned Rango complex inh -1.7% and Rango release inh -6%.
For O=C(CCCc1ccccc1)c1ccccc1 the results were miR-21 FLuc -77%, Rango complex inh inconclusive and Rango release inh 1%.
For COc1ccc(CC2(CO)CCN(CC3=Cc4cc(Cl)ccc4OC3)CC2)cc1 the results were miR-21 FLuc -10%, Rango complex inh -1.5%, Rango release inh 1% and GLA inh pH 4.5 0.
Screening COc1ccc(-c2nnc(COc3ccc4ccccc4c3)o2)cc1OC returned miR-21 FLuc -14%, Rango complex inh -0.2%, Rango release inh -8% and GLA inh pH 4.5 -1.
`Fc1cccc(Cc2noc(CN3CCCCC3CCc3ccccn3)n2)c1` (stereo unspecified) gave miR-21 FLuc 0%, Rango complex inh inconclusive, Rango release inh 4% and GLA inh pH 4.5 -8.
CCC(=O)NC(C)C(c1cccs1)N1CCN(Cc2ccccc2)CC1 (stereo unspecified) was read as miR-21 FLuc 1%, Rango complex inh 1.3%, Rango release inh 1% and GLA inh pH 4.5 -6.
For O=C(COC(=O)c1ccc(S(=O)(=O)N2CCCC2)cc1)Nc1ccc(F)cc1F the results were miR-21 FLuc 1%, Rango complex inh 9.2%, Rango release inh -12% and GLA inh pH 4.5 5.
For CN(C)C1=NCCN1CCc1ccc(F)cc1 the results were Rango complex inh -0.9% and Rango release inh -9%.
Screening CCOC(=O)c1csc(N)c1-c1ccc([N+](=O)[O-])cc1 returned miR-21 FLuc -14%, Rango complex inh -0.3%, Rango release inh -13% and GLA inh pH 4.5 -12.
`COc1ccccc1-c1nnc(NC(=O)C(C)SC2=NCCS2)s1` (stereo unspecified) gave miR-21 FLuc -28%, Rango complex inh -0.7%, Rango release inh 1% and GLA inh pH 4.5 -5.
For COc1ccc2ccccc2c1/C=N/NC(=O)c1ccc([N+](=O)[O-])cc1 the results were miR-21 FLuc -4%, Rango complex inh -2.1% and Rango release inh 9%.
COc1cccc(N2CCN(c3ccc(S(=O)(=O)N4CCN(C)CC4)cc3[N+](=O)[O-])CC2)c1 was read as Rango complex inh -0.4% and Rango release inh 9%.
Screening CC1=NN(c2nc(N)nc(/C(C#N)=C/c3ccc([N+](=O)[O-])o3)n2)C(C)(C)C1 returned Rango complex inh inconclusive and Rango release inh inconclusive.

Bioassay records (PubChem BioAssay)
